Assay outcomes deposited in PubChem BioAssay by National Center for Advancing Translational Sciences (NCATS).
Six1-Eya2 blk – qHTS Assay for Inhibitors of the Six1/Eya2 Interaction | AID 651725, 2012 | Homeobox protein SIX1 (Homo sapiens) + Protein phosphatase EYA2 (Homo sapiens), … | activity change, % (concentration not given with the values) | 0.56% of 360,000 active | AlphaScreen GST-Six1/His-Eya2 binding, biochemical; stronger effect = lower value; control for the full effect not named in the record; in the data active = activity change below about -65%; inconclusive = about -30% to -65%; inactive = above about -30%; further: on the % scale 0 is the no-effect control and ±100 the full control effect
Target sequence (O00167 whole entry, looked up): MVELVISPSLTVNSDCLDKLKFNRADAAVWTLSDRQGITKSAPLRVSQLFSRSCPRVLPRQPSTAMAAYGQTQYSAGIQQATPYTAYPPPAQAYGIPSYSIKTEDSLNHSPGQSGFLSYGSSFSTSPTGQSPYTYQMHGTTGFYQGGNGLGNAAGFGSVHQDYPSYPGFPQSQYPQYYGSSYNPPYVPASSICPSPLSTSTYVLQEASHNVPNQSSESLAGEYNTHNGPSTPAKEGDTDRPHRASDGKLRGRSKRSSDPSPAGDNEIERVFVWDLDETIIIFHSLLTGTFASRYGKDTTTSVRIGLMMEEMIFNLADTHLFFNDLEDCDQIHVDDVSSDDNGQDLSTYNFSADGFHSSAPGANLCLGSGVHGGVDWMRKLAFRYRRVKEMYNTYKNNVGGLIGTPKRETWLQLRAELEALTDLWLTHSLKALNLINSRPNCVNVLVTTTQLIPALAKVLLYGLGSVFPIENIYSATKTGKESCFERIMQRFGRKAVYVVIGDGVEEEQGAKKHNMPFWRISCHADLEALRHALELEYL
Target sequence (Q15475 whole entry, looked up): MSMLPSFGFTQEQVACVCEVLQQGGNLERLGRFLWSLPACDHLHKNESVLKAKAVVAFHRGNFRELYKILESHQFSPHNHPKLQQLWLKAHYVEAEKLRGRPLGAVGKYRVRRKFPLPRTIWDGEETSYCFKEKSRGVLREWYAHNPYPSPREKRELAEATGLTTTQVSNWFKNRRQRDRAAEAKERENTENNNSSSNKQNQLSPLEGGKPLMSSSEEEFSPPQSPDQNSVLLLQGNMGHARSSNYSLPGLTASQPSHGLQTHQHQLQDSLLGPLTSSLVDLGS
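AlphaScreen luminescence read after one hour at 37 °C in darkness. Pin-transferred compounds met GST-Six1 and His-Eya2 protein (5X stock 250 nM/500 nM) plus glutathione donor and Ni-chelate acceptor beads (5X, 50 ug/mL).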
D2 ag – Beta-Arrestin HTS for Positive Allosteric Modulators of the Human D2 Dopamine Receptor: Agonists | DiscoveRx PathHunter D2 beta-arrestin, luminescence, 90 min; 100% = 57 uM dopamine signal | 0.084% of 360,000 active | activation, % (no concentration beside the values); in the data active = activation above about 40%; inconclusive = about 15% to 40%; inactive = below about 15%; further: compound concentration not given in the record; the text of the record calls up to 30% inactive
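DiscoveRx PathHunter D2 beta-arrestin cells (2,100/well) attached overnight, then compound-stimulated 90 min at 37 C in HBSS/10 mM HEPES/0.1% Tween-20 buffer; beta-galactosidase complementation read by luminescence after 1 h at ambient temperature. Dopamine 57 uM final (EC100) as control.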
TRPML1 ag – qHTS for Agonists of the Human Mucolipin Transient Receptor Potential 1 (TRPML1). 0.12% of 410,000 active. activation, % (no concentration beside the values). Mucolipin-1 (Homo sapiens), Q9GZU1. TRPML1-expressing cells, Ca2+ dye fluorescence, FDSS; host cell line not named in the record; reference of the full effect not given here. AID 624414, 2012; in the data active = activation above about 50%; inconclusive = about 30% to 50%; inactive = below about 30%; further: 0% is about no effect; the text of the record puts the active cut at 80%
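Tetracycline-induced TRPML1-DL cells are seeded and incubated overnight before loading with a no-wash Ca2+ dye and quencher. Agonist activity is taken from the 110 s fluorescence read following compound pin-transfer on an FDSS, before EC80 54-4 challenge.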
D2 potentiator – Beta-Arrestin HTS for Positive Allosteric Modulators of the Human D2 Dopamine Receptor: Potentiators; D(2) dopamine receptor (Homo sapiens), P14416; 0.23% of 360,000 active; potentiation, % (test concentration not listed); AID 624464, 2012; DiscoveRx D2 beta-arrestin cells, luminescence, 90 min; 100% = 57 uM dopamine signal; active = potentiation of 50% or more; inconclusive = 30% to 50%; inactive = 30% or less;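 further: compound concentration not given in the record; tested on top of an EC20 dose of dopamine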
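PathHunter beta-arrestin assay in DiscoveRx D2 cells. Compounds were added with an EC20 of dopamine (50 nM final) for 90 min at 37 deg C. Luminescence was read 1 h after detection reagent, with 57 uM dopamine as the EC100 control.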
PINK1 modulator – A Quantitative High throughput Screen to Identify Chemical Modulators of PINK1 Expression; PINK1 immunofluorescence, high-content cytometry, 24 h; Potency, µM (series often up to 76.6 µM), for inactives: top-dose activation (PINK1 increase), most hits filed as activators; 0.2% of 410,000 active; AID 624263, 2012; active = well fitted activation curve with a large enough effect; inconclusive = small, poorly fitted or top-dose-only effect; inactive = flat fitted curve, though single readings scatter; cell line not stated here;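 further: potency means the concentration at half of the fitted maximal effect; % of control where 0% means no effect; nearly all actives have a fitted effect of over 65% in size; a mitochondrial uncoupler was the plate control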
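Compound titrations (5 concentrations, 24 h) on a stable cell line; DMSO and CCCP controls. Endpoint: fixed-cell PINK1 immunofluorescence with mitochondrial, cell and nuclear markers, scanned by microplate cytometer.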
CtBP-E1A inh – qHTS Assay for Inhibitors of the CtBP/E1A Interaction; CtBP / adenovirus E1A interaction (AlphaScreen); AlphaScreen GST-E1A/His-CtBP binding, 1536-well; stronger effect = lower value; control for the full effect not named in the record; activity change, % (no concentration beside the values); 0.49% of 340,000 active; in the data active means activity change below about -65%; inconclusive means about -30% to -65%; inactive means above about -30%; further: on the % scale 0 is the no-effect control and ±100 the full control effect; compound concentration not given in the record
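Protein mix (5X: 125 nM each GST-E1A, His-CtBP) was incubated with pinned compound 2 h at 37 deg C in dark, in 50 mM Tris pH 8.0 buffer with 300 mM NaCl. Glutathione donor and nickel acceptor beads followed; AlphaScreen signal read after 1 h.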
* marks the source's active call; other numbers are inactive results; ? = inconclusive; nt = not tested or not shown; & = joins results of further samples; [ ] = remark or other dose. Hits appear at their usual frequency; 1.3% or so of the library scored in one or more.

Key to letters: A = Six1-Eya2 blk; B = D2 ag; C = TRPML1 ag; D = D2 potentiator; E = PINK1 modulator; F = CtBP-E1A inh
smiles: CC(C)OC(=O)CSc1nc2ncc(Cl)cc2[nH]1
  A: -2	B: -3.8	C: -0.3	D: -30	E: -0.9%	F: -1

smiles: O=C(c1ccc(S(=O)(=O)N2CCOCC2)cc1)N1CCN(S(=O)(=O)c2ccc(Cl)s2)CC1
  A: 4	B: -4.9	C: 0.2	D: -10	E: 1.3%	F: nt

smiles: C[C@@H]1CN(C(=O)c2nc3ccc(Cl)cn3c2CN[C@H]2CCCCNC2=O)C[C@H](C)O1
  A: 4	B: -3.5	C: 1.2	D: -3	E: 2.7%	F: -18

smiles: COCCNC(=O)C1(C)CCCN(C(=O)c2c(F)ccc(C)c2F)C1 (configuration not stated)
  A: 6	B: -2.4	C: 0.3	D: -15	E: 0.3%	F: 7

smiles: Cc1ccc(C)c(OCC(=O)N2CCN(c3ncccn3)CC2)c1
  A: 3	B: -4.5	C: 0.4	D: -8	E: -0.5%	F: -1

smiles: Cc1cc(C)c2[nH]c(=O)c(CN(Cc3cccnc3)C(=S)NCCCN(C)C)cc2c1
  A: 3	B: -0.1	C: 0.9	D: -2	E: -0.7%	F: 0

smiles: CCCN1CCN(CCCNC(=O)C(CC)n2nc(C)c3sc4ccccc4c3c2=O)CC1 (configuration not stated)
  A: 0	B: -5.7	C: -1.2	D: -19	E: -0.2%	F: 2

smiles: O=C(c1ccc(NC(=S)NCc2ccco2)cc1)N1CCOCC1
  A: -13	B: 3.6	C: 0.3	D: 9	E: -0.6%	F: -26

smiles: O=C(N/N=C/c1cc([N+](=O)[O-])cc([N+](=O)[O-])c1O)/C(=C\c1cccs1)NC(=O)c1ccccc1
  A: ?	B: -1.1	C: 0.9	D: -21	E: 0.7%	F: -2

smiles: CCc1ccc(N(CC(=O)NC2CCCCC2)C(=O)CCC(=O)Nc2ccccn2)cc1
  A: 9	B: 1.0	C: -0.2	D: -10	E: 5.6%	F: 3

smiles: O=C(OCc1nnc(-c2ccccc2)o1)c1cc([N+](=O)[O-])ccc1Cl
  A: -25	B: 1.7	C: -0.4	D: 2	E: 6.4%	F: -8

smiles: NC(=O)COC(=O)/C=C/c1cccc(Br)c1
  A: 2	B: 0.0	C: 0.3	D: -7	E: -0.3%	F: 4

smiles: CCc1cc2c3c([nH]c2cc1S(=O)(=O)N1CCC2(CC1)OCCO2)CCCC3=O
  A: -3	B: 0.1	C: -0.5	D: -9	E: 1.6%	F: -7

smiles: CN(C)/C=N/NC(=O)c1ccccc1Cl
  A: 4	B: -3.0	C: -0.9	D: -16	E: -0.4%	F: nt

smiles: O=C(Sc1ccc(Cl)cc1)c1ccccn1
  A: -13	B: -9.5	C: 2.1	D: -2	E: 9.2%	F: -30

smiles: O=C(Oc1ccc(Br)cc1)C1CCN(C2=NS(=O)(=O)c3ccccc32)CC1
  A: -8	B: 1.8	C: -0.5	D: -4	E: 0.9%	F: 1

smiles: Cc1nc(Cl)c(S(N)(=O)=O)c(C)c1Cl
  A: 10	B: 4.9	C: -0.2	D: 7	E: -1.4%	F: 2

smiles: CN(CC(=O)NCc1ccncc1)S(=O)(=O)c1ccccc1
  A: 5	B: -0.3	C: 1.0	D: 8	E: nt	F: 11

smiles: COC(C[C@@H]1O[C@H]1[C@@H](O)[C@@H](C)OCc1ccccc1)OC
  A: 4	B: -6.0	C: -0.1	D: -7	E: 1.0%	F: 0

smiles: COc1cccc(OCc2cc(C(=O)N3CCN(C4CCCCC4)C(=O)C3)no2)c1
  A: -4	B: 1.1	C: -0.4	D: -12	E: 1.0%	F: 4

smiles: O=C(NCc1ccccc1Cl)C1CCCN(S(=O)(=O)c2cccc3nonc23)C1 (configuration not stated)
  A: 4	B: 8.8	C: -0.5	D: 0	E: 23%	F: 7

smiles: Cc1n[nH]c(C)c1Cc1c(F)cccc1Cl
  A: 1	B: -3.1	C: 2.1	D: -4	E: -2.1%	F: 2

smiles: COCCCn1c(SCC(=O)Nc2nnc(C)s2)nnc1-c1ccoc1C
  A: -1	B: -2.9	C: -0.5	D: 2	E: -0.6%	F: 1

smiles: Cc1ccc(OCCn2cnc3cc([N+](=O)[O-])ccc3c2=O)cc1
  A: ?	B: 1.1	C: -1.2	D: 2	E: 3.0%	F: 0

smiles: Cn1c(=O)n(/N=C/c2ccccc2)c2ccccc21
  A: 14	B: -0.9	C: -0.4	D: -4	E: 0.2%	F: 2

smiles: CCCCCCCCCC(=O)OCC(O)CO (configuration not stated)
  A: -3	B: -1.9	C: -0.6	D: -6	E: 0.5%	F: 9

smiles: C=CCn1c(=S)[nH]c2nc3c(cc2c1=O)COC(C)(C)C3
  A: 4	B: -1.4	C: 4.6	D: -11	E: 4.9%[38.3 µM]	F: 1

smiles: COc1ccc(N2CCN(C(=O)CCCCCn3c(=O)[nH]c4ccsc4c3=O)CC2)cc1
  A: 15	B: -2.0	C: 1.4	D: -5	E: 0.8%	F: 0

smiles: CC1CC(C)(C)NCc2ccccc21 (configuration not stated)
  A: 12	B: 2.0	C: 0.5	D: -6	E: -1.8%	F: 5

smiles: CC(=O)Nc1ccc(NC(=O)C2CCCN(c3ncccn3)C2)cc1 (configuration not stated)
  A: 4	B: -2.5	C: 0.2	D: 8	E: -1.8%	F: 4

smiles: O=C(CN1CCOCC1)Nc1c2c(nc3c1CCC3)CCC2
  A: 4	B: -3.0	C: -0.6	D: 20	E: -1.2%	F: 6

smiles: CCOc1ccc(C2NC(=O)c3sc(=S)n(-c4ccccc4)c3N2)cc1 (configuration not stated)
  A: -10	B: -6.4	C: -0.3	D: -2	E: -0.8%	F: 1

smiles: C[C@H]1C=C(C(=O)N2CCOCC2)O[C@@H](OCc2ccc(CO)cc2)C1
  A: -1	B: -3.6	C: -0.1	D: -4	E: -0.2%	F: 6

smiles: CCOc1cc(C2NC(=O)CCC2[N+](=O)[O-])cc(Br)c1OCC (configuration not stated)
  A: -15	B: 3.8	C: -0.6	D: -16	E: 1.0%	F: nt

smiles: COc1ccc(NC(=O)Cn2nc(Cc3cccnc3)c3ccccc3c2=O)c(OC)c1
  A: 17	B: -4.1	C: 0.4	D: -5	E: 0.2%	F: 4

smiles: Cc1ccc(NC(=O)c2cc(S(=O)(=O)N3CCOCC3)ccc2F)c(C)c1
  A: 2	B: 3.0	C: 1.3	D: 3	E: -3.4%[38.3 µM]	F: -1

smiles: COCC1CCCN(C(=O)c2ccc3oc(CCCc4ccccc4)nc3c2)C1 (configuration not stated)
  A: -1	B: -2.5	C: -0.4	D: -1	E: 1.7%	F: 0

smiles: Cc1ccc(NC(=O)COc2ccc(N(C)S(=O)(=O)c3ccc(F)cc3)cc2)cc1
  A: -2	B: 7.0	C: 1.4	D: -7	E: 5.2%	F: nt

smiles: CCOC(=O)C1(Cc2ccc(Cl)cc2)CCN(Cc2ccon2)CC1
  A: -4	B: -2.3	C: -1.3	D: -3	E: -0.2%	F: nt

smiles: CC(C)(C)C(=O)Nc1ccccc1N1CCN(c2ccc(F)cc2)CC1
  A: 25	B: -3.8	C: -0.7	D: -4	E: 0.8%	F: -22

smiles: CCC1=NN(S(=O)(=O)c2ccc(C)cc2)C(O)(C(F)(F)F)C1 (configuration not stated)
  A: -1	B: -2.3	C: -1.0	D: -8	E: 0.2%	F: 7

smiles: CCOC(=O)[C@]12CCC=C1N(Cc1cccc3ccccc13)C(=O)[C@H](CC(=O)N1CCN(C(=O)C3CC3)CC1)C2
  A: 0	B: nt	C: -0.4	D: nt	E: -0.8%	F: 3

smiles: Cc1ccc(C)c(N2CCN(C(=O)c3ccc4c(c3)c(C)c(C)n4C)CC2)c1
  A: -27	B: -1.1	C: 1.1&2.4	D: -9	E: 17%&-0.3%	F: ?

smiles: CCOC(=O)C1CCCCN1C(=O)CCn1nnnc1CN1CCOCC1 (configuration not stated)
  A: 4	B: 3.3	C: 0.9	D: -4	E: -1.4%	F: 6

smiles: O=C1C/C(=C/NCc2ccccc2)C(=O)N1
  A: 14	B: -2.1	C: -0.5	D: 1	E: 0.5%	F: 4

smiles: CC(=O)N(Cc1cc2c(C)cc(C)cc2[nH]c1=O)C1CCCCC1
  A: 3	B: 0.0	C: 14	D: -10	E: 1.0%	F: -10

smiles: CCOC(=O)Cc1nn(C)c(=O)c2ccccc12
  A: 2	B: 0.6	C: 0.7	D: -8	E: -5.6%[38.3 µM]	F: 3

smiles: Cc1ccc(S(=O)(=O)NCC2COc3ccccc3O2)cc1 (configuration not stated)
  A: 8	B: -0.7	C: 1.2	D: -2	E: 1.4%	F: 23

smiles: N#Cc1sc2nccc(Nc3ccccc3)c2c1N
  A: 8	B: 6.1	C: 1.2	D: -8	E: -0.9%	F: 9

smiles: CC(OCc1ccccc1)C(NC(=O)OC(C)(C)C)C(=O)NCC1CCCO1 (configuration not stated)
  A: 3	B: -2.3	C: -0.3	D: -5	E: -1.7%	F: -15

(next part)
Key to letters: A = Six1-Eya2 blk; B = D2 ag; C = TRPML1 ag; D = D2 potentiator; E = PINK1 modulator; F = CtBP-E1A inh
smiles: COc1ccc(C)cc1Cn1c(S(C)(=O)=O)nc2ccccc21
  A: -2	B: -0.1	C: -0.7	D: 3	E: 0.3%[38.3 µM]	F: 0

smiles: Cc1cc2ccccn2c1C(=O)c1ccccc1Br
  A: 0	B: -1.2	C: 2.3	D: -5	E: 5.9%	F: -3

smiles: CC1CCCN(CCOc2cccc(Oc3ccccc3)c2)C1 (configuration not stated)
  A: -14	B: -1.1	C: 1.4	D: -2	E: 7.4%	F: 7

smiles: COc1ccc(/C(C)=N/NC(=O)CNC(=O)c2cccs2)cc1
  A: 0	B: -5.5	C: 0.5	D: -9	E: -0.3%	F: nt

smiles: O=C(NCc1ccccn1)c1ccc(/C=N/O)nc1
  A: ?	B: -1.0	C: -0.3	D: -9	E: -0.2%	F: ?

smiles: C[C@H](NC(=O)C1CCN(S(=O)(=O)c2ccccc2)CC1)C(=O)NCc1ccncc1
  A: -3	B: 1.7	C: -0.3	D: -7	E: 0.5%	F: 6

smiles: CCN(CC)S(=O)(=O)c1ccc(C(=O)Nc2nnc(NC(=S)Nc3ccccc3)s2)cc1
  A: -15	B: -3.2	C: -1.3	D: -15	E: 9.6%	F: -11

smiles: CCc1cc2ccc(C)cc2nc1SCC(=O)NC1CCCC1
  A: 20	B: -4.3	C: 1.0	D: -5	E: 9.2%	F: -11

3 compounds out of the list above, sorted by the number in CtBP-E1A inh, highest first:
SMILES | CtBP-E1A inh
CC1CCCN(CCOc2cccc(Oc3ccccc3)c2)C1 (configuration not stated) | 7
Cc1cc2ccccn2c1C(=O)c1ccccc1Br | -3
CCN(CC)S(=O)(=O)c1ccc(C(=O)Nc2nnc(NC(=S)Nc3ccccc3)s2)cc1 | -11
